# Bioassay records as filed in PubChem.
# HSV replic up: HSV replication enhancement; HSV replication augmentation in cells, fold increase; maximum fold increase; actives 0.005% (n = 220,000);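 active = peak rise of 1.5-fold or more in the series; tested in PC3 cells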;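 also: first round at 10 µM; read as green reporter fluorescence; hits show the peak of a series up to 25 µM; 1 = signal of infected wells without compound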
# INS promoter inh: TRM-6 insulin promoter activity inhibition. actives 0.9% (n = 130,000). inhibition, % at 2 µM. TRM-6 cells (human fetal islet line), insulin promoter-eGFP reporter, imaging; reporter expression induced with tamoxifen;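 active = inhibition above the mean plus 3 SD, with well images judged a real hit on visual review, cut at about 60% in these data, passing the limit was not always enough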
# RGS16-Gao HTS: regulators of human RGS16-Galphao interaction | bead-based flow cytometry RGS16-Galphao binding, fluorescence; actives lie on both sides | AID 1441 | binding response (% of control), % at 10 µM | actives 0.38% (n = 220,000) | O15492+P09471;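 active = below 25% or above 175%, edge rows of some plates excepted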;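 also: Galphao activated by GDP with aluminum fluoride before binding; 100% = wells without compound and 0% = beads without RGS; some results beyond the cut were filed as inactive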
# PKD1 kinase inh: PKD1 (human) kinase inhibition; Q15139; PKD1 kinase fluorescence polarization assay; inhibition, %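 (about 10 µM by stock and volumes)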; actives 0.056% (n = 200,000); AID 797;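 active = inhibition of 50% or more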;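 also: controls were vehicle for no effect and a reference inhibitor for full effect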
# Target sequence (Q15139 whole entry, looked up): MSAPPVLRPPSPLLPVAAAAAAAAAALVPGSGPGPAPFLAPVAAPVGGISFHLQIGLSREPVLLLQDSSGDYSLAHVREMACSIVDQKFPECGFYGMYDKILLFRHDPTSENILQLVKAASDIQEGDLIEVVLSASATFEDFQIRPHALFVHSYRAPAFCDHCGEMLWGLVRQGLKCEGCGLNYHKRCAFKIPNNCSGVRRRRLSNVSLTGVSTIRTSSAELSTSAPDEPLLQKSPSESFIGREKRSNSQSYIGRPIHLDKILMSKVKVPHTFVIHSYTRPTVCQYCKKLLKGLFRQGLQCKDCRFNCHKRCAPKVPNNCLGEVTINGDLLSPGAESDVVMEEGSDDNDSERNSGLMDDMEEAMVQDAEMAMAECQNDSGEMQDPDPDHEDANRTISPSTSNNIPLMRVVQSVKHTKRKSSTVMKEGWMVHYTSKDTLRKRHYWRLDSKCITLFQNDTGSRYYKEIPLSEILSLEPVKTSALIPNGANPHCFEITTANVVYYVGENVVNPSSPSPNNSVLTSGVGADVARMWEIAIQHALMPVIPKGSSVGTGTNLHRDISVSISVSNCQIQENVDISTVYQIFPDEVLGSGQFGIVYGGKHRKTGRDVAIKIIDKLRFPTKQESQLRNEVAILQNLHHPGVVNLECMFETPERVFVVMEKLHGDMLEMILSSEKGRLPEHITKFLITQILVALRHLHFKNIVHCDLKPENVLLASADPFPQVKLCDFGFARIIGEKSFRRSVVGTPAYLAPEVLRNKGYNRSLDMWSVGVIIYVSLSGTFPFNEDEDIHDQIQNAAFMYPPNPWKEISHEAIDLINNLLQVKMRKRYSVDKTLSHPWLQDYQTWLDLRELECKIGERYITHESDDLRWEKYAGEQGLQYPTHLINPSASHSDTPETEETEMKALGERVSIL
# GALR2 agonist: activates the human galanin receptor 2. AID 803. O43603. GALR2-expressing cells, agonist activation read-out. activation, %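 (tested at 5 µM)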. actives 0.48% (n = 140,000);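 active = above mean plus 3 SD of all compounds, about 5% in these data, not always enough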;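 also: 0% = vehicle buffer wells and 100% = reference agonist at full effect; tested in CHO reporter cells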
# INS promoter inh cell count: also measured in INS promoter inh; calls as there; normalized cell count, %; measured here: cell count, toxicity; reference of the scale not given here;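 cells exposed to compound for 48 h; stained nuclei by imaging scaled within each plate; lower means fewer cells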
# HSV replic up primary fold: recorded beside HSV replic up, whose call it bears; fold increase; compound at 10 µM; measured here: primary screen fold increase 10 uM; tested in PC3 cells;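 GFP signal in the first replicate; 1 = infected wells without compound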
# The depositor's hits bear a star; i = inactive; x = not tested or not shown.
# The line under a structure holds: HSV replic up	HSV replic up primary fold	INS promoter inh	INS promoter inh cell count	RGS16-Gao HTS	PKD1 kinase inh	GALR2 agonist
- COc1ccc([N+](=O)[O-])cc1NC(=O)c1cccs1
 : i	1	x	x	104	1	x
- CCOC(=O)CNS(=O)(=O)c1cc(-c2nnc(Nc3ccc4c(c3)OCO4)c3ccccc23)ccc1C
 : i	0.8	37	152	101	-9	1.2
- CCC(=O)Nc1ccc2c(c1)OCCO2
 : i	1.1	-11	94	98	2	-2.2
- O=C(O)C1C2C=CC(C2)C1C(=O)NCCCN1CCOCC1 (stereo unspecified)
 : i	0.99	x	x	101	-9	-1.5
- O=C(O)C(Cc1ccccc1)N1C(=O)c2ccccc2C1=O (stereo unspecified)
 : i	1	-1	85	107	-2	-2.1
- CCn1cc(CNC(=O)NC2CCCCC2)c(C)n1
 : i	0.87	-8	130	103	-6	-0.8
- O=C1CCCC2=C1C(Cc1ccccc1)C1=C(CCCC1=O)O2
 : i	0.91	-109	64	105	6	-2.2
- Cc1noc(C)c1S(=O)(=O)N1CCC(C(=O)N2CCN(Cc3ccc4c(c3)OCO4)CC2)CC1
 : x	x	x	x	105	-8	-1.4
- O=C(CCN1CCc2ccccc2C1)c1ccc2c(c1)OCCO2
 : i	0.92	-17	191	100	1	-1.3
- CCCNC(=O)Cn1c(=O)oc2ccccc21
 : i	0.96	-44	98	91	-3	1.0
- O=C(O)c1cc(-c2cccs2)[nH]n1
 : i	1.1	x	x	138	2	x
- COC(=O)[C@H](Cc1ccccc1)NC(=O)NCCc1ccc(S(N)(=O)=O)cc1
 : i	0.93	x	x	101	-3	-0.5
- O=S(=O)(c1cccc2nsnc12)N1CCc2ccccc2C1
 : i	0.96	-56	178	113	1	-3.1
- Cc1cc(C)cc(NS(=O)(=O)c2ccc(Oc3ncc(C(F)(F)F)cc3Cl)cc2)c1
 : i	0.83	-29	69	100	-13	1.6
- COc1cc2c(cc1OC)C(NC(=O)C(F)(F)F)C/C2=N\O (stereo unspecified)
 : i	0.97	x	x	98	-2	x
- C#Cc1ccc([C@@H]2C=C(C(=O)N3CCN(Cc4ccc5c(c4)OCO5)CC3)O[C@H](OCC)[C@H]2CCCO)cc1
 : i	0.67	x	x	92	-12	x
- O=C(O)CCCc1ccccc1
 : x	x	x	x	112	-4	0.9
- Cc1ccsc1-c1n[nH]c(=S)n1CC(C)C
 : i	0.89	0	107	103	2	0.0
- O=C(CNC(=O)COc1ccccc1)NCCc1ccccn1
 : i	1	12	115	104	-1	x
- CC(Sc1nnc(-c2cccs2)n1Cc1ccccc1)C(=O)NCc1ccc2c(c1)OCO2 (stereo unspecified)
 : i	1	-29	145	103	3	-3.5
- Cc1ccnc(NC(=O)c2cc([N+](=O)[O-])cc([N+](=O)[O-])c2)c1
 : i	0.99	25	82	99	-2	x
- CCOC(=O)c1c(OCCO)noc1N
 : i	1.1	-19	134	100	4	x
- CCCNC(=O)Nc1ccc2c(c1)N(C)C(=O)c1ccccc1S2
 : i	0.93	-87	108	119	-8	-3.3
- COC(=O)c1ccc(NCCC(=O)O)cc1
 : i	1.2	37	93	101	-17	-1.9
- O=C1CCCN1c1ccc(S(=O)(=O)NCCc2ccc(Cl)cc2)cc1
 : i	0.9	-57	124	103	-11	-1.4
- COc1ccc(CC(=O)OCC(=O)Nc2cc(S(=O)(=O)N3CCOCC3)ccc2N2CCCC2)cc1
 : i	0.98	x	x	94	0	x
- CCN1CCN(Cc2coc3ccc(C)cc3c2=O)CC1
 : i	1	-18	95	100	-4	-0.5
- COC(=O)c1cccc(NC(=O)/C=C/c2ccc3c(c2)OCO3)c1
 : i	0.86	-22	135	105	17	-0.1
- O=Cc1ccc2cccnc2n1
 : i	0.98	-58	89	63	-2	x
- CCOc1ccccc1NC(=O)NC(=O)N(C)S(=O)(=O)c1ccc(C)cc1
 : i	0.95	-45	151	110	0	x
- CCOC(=O)c1c(CN2CCCCC2)n(C)c2cc(Br)c(O)c(CN(C)C)c12
 : i	0.82	x	x	113	-9	-1.6
- O=C(Nc1ccccc1NC(=O)NC1CCCCC1)NC1CCCCC1
 : i	1.1	35	169	102	-6	-2.8
- COc1ccc(C(C)(C)C)cc1NC(=O)Nc1ccc2c(c1)OCO2
 : x	x	16	128	99	-9	-1.2
- O=C(O)CC(CNS(=O)(=O)c1cccc2nsnc12)c1ccccc1 (stereo unspecified)
 : i	1.1	27	43	106	1	x
- COc1ccc(NC(=S)NC2CCS(=O)(=O)C2)cc1 (stereo unspecified)
 : x	x	0	101	101	-4	-0.6
- O=C(N/N=C/c1cc(O)ccc1[N+](=O)[O-])c1ccc2c(c1)OCCO2
 : i	0.95	x	x	105	x	x
- Cc1ccc(-c2c3c([nH]c(=S)c2C#N)CCCC3)o1
 : i	1	x	x	87	4	-0.8
- CN(C)c1ccc(/C=N/NC(=O)CCC(=O)NCc2ccccc2)cc1
 : i	0.98	-40	122	100	-8	-0.2
- O=C1CCCC(=O)N1c1ccc(NCCOCCO)c([N+](=O)[O-])c1
 : i	0.96	-64	97	101	0	x
- COc1ccc(S(=O)(=O)N2CCCC(C(=O)NC3CCCCC3)C2)cc1 (stereo unspecified)
 : i	0.97	36	187	98	-4	-2.2
- CC(=O)c1cccc(NS(=O)(=O)c2cc(OCC(N)=O)c(C)cc2Cl)c1
 : i	0.77	33	42	103	3	-2.9
- O=C(CN(Cc1ccc(F)cc1)C(=O)Cn1nnc2ccccc21)NCC1CCCO1 (stereo unspecified)
 : i	0.9	41	139	101	-1	-1.0
- CC1(C)[C@@H](O)CC[C@]2(C)C3C(O)C=C4[C@H]5C[C@@](C)(C(=O)O)CC[C@]5(C)CC[C@]4(C)[C@]3(C)CC[C@@H]12 (stereo partly specified)
 : i	0.79	x	x	96	x	x
- CN(C)C=Nc1nonc1-c1ccc(Cl)cc1
 : i	0.91	x	x	102	x	x
- COc1ccc(CCNC(=O)C2CC(c3ccccc3[N+](=O)[O-])=NO2)cc1 (stereo unspecified)
 : i	0.71	-19	116	109	-19	0.0
- Oc1[nH]c(N=C2N=c3ccccc3=N2)c2ccccc12
 : i	0.81	x	x	33	x	x
- Cc1ccc(S(=O)(=O)/N=C2\C(=O)c3ccccc3C([O-])=C2n2cc[n+](CCC(C)C)c2)cc1
 : i	0.71	9	119	102	-1	-1.5
- CCc1ccccc1S(=O)(=O)Cc1ccc(C(=O)NCc2ccc3c(c2)OCO3)o1
 : i	0.72	x	x	102	-2	-5.5
- Cc1cc(C)c(S(=O)(=O)Nc2cccc(/C=C/C(=O)O)c2)c(C)c1
 : i	0.87	21	122	115	3	0.2
- Cc1cc2cc(CN(Cc3nnnn3C3CCCCC3)CC3CCCO3)c(=O)[nH]c2cc1C (stereo unspecified)
 : i	0.88	3	69	98	-4	-0.6

# Three compounds from above, ordered by molar mass, falling.
# The line under a structure holds: HSV replic up	HSV replic up primary fold	INS promoter inh	INS promoter inh cell count	RGS16-Gao HTS	PKD1 kinase inh	GALR2 agonist
- CC1(C)[C@@H](O)CC[C@]2(C)C3C(O)C=C4[C@H]5C[C@@](C)(C(=O)O)CC[C@]5(C)CC[C@]4(C)[C@]3(C)CC[C@@H]12 (stereo partly specified)
 : i	0.79	x	x	96	x	x
- COc1ccc(CCNC(=O)C2CC(c3ccccc3[N+](=O)[O-])=NO2)cc1 (stereo unspecified)
 : i	0.71	-19	116	109	-19	0.0
- CN(C)C=Nc1nonc1-c1ccc(Cl)cc1
 : i	0.91	x	x	102	x	x

# Next part:
# The line under a structure holds: HSV replic up	HSV replic up primary fold	INS promoter inh	INS promoter inh cell count	RGS16-Gao HTS	PKD1 kinase inh	GALR2 agonist
- Oc1ccccc1CNCc1ccccc1
 : i	0.84	x	x	99	-8	x
- Cc1cc(C)c2c(=O)[nH]c(SCC(=O)N3CCOCC3)nc2n1
 : i	0.97	x	x	103	-3	x
- CCN(CC)P(=O)(/C(Cl)=C\Nc1c(C)n(C)n(-c2ccccc2)c1=O)N(CC)CC
 : i	0.92	-52	71	103	4	-1.4
- C/C(CC(=O)c1ccccc1)=N\NC(=O)CC#N
 : i	0.96	x	x	102	9	x
- CC(C)=CCC/C(C)=C/CC(C)(C)CNCCN1CCNCC1
 : i	0.55	-36	79	102	-1	-1.6
- Cc1cc(C)nc(N/N=C/c2ccc(N3CCOCC3)cc2)n1
 : i	1.1	16	95	95	4	x
- c1ccc(-c2oc3ncnc(NCCCn4ccnc4)c3c2-c2ccccc2)cc1
 : x	x	-6	79	106	-8	1.9
- O=C(C1CCN(S(=O)(=O)N2CCCCC2)CC1)N1CCCCC1
 : i	0.97	-79	117	83	-6	-1.9
- CCOc1ccc(CCN2C(=O)C(=O)N([C@H](CCCN(C)Cc3ccccc3)CNCc3ccccc3)C[C@@H]2C(C)C)cc1
 : i	0.69	x	x	99	x	x
- O=C(NN1CCOCC1)c1ccc(S(=O)(=O)N2CCCCC2)cc1
 : i	1.1	6	87	99	-2	x
- O=S(=O)(Nc1nccs1)c1ccc(Br)cc1
 : i	1	x	x	102	-4	x
- CCn1c(SCC(=O)c2ccc3c(c2)OCCO3)nnc1-c1ccco1
 : i	1.1	17	52	97	1	-1.1
- COc1ccc2oc(C(=O)OC/C(O)=C(\C#N)c3nc4ccccc4[nH]3)c(C)c2c1
 : i	1.1	x	x	99	x	x
- Cc1nn(-c2ccccc2)c(Cl)c1C(=O)OC(C)C(=O)NC(=O)NC1CCCCC1 (stereo unspecified)
 : i	0.98	22	112	100	-4	-0.5
- COC(Cc1n[nH]c(=S)n1-c1ccccc1)OC
 : i	0.78	-21	103	104	-16	-1.0
- CC(C)=NNc1nc2sc3c(c2c(=O)[nH]1)CC(C)(C)OC3
 : i	0.92	31	126	109	8	-0.3
- N/C(Cc1ccc([N+](=O)[O-])cc1)=N\OC(=O)C1CCCCC1
 : i	0.81	-5	138	117	-2	x
- CC1=CC(C)(C)N(C(=O)CSc2nccn2C)c2cc(C)ccc21
 : i	0.91	x	x	164	8	1.0
- CCn1c(-c2ccccc2Cl)nn(CC(=O)Nc2ccc(OC)cc2)c1=S
 : i	0.83	x	x	109	2	-0.2
- O=C(Cn1c(=O)n(-c2ccc(F)cc2)c(=O)c2sccc21)N1CCCC1
 : i	1.1	x	x	106	0	0.0
- CC(NC(=O)CSc1nnc(-c2cc3cc(Cl)ccc3o2)n1C)c1ccccc1 (stereo unspecified)
 : i	1.1	20	101	99	4	-1.4
- Cc1nc(N)ncc1Sc1ccccc1
 : i	1	x	x	98	x	x
- COC(C(=O)NC1CCCCCCC1)c1ccccc1 (stereo unspecified)
 : i	0.94	-36	85	104	5	0.1
- CSC(=NC#N)N1CCN(c2ccccn2)CC1
 : i	0.92	20	106	91	1	x
- CCCCNC(=O)N1CCOCCOCCN(C(=O)NCCCC)CCOCC1
 : i	0.91	x	x	96	5	-2.0
- O=C(CC1Oc2ccccc2NC1=O)NCCc1ccccc1 (stereo unspecified)
 : i	0.91	x	x	104	-1	-3.1
- Cn1cccc1C(=O)OCC(=O)c1cc2ccccc2o1
 : i	1	-185	94	x	-11	-0.6
- Cc1cc(C)cc(-n2c(C)cc(C(=S)N3CCOCC3)c2C)c1
 : i	1.1	3	55	110	-5	-0.7
- COc1cc(C2C(C#N)=C(N)Oc3cc(C)n(CC4CCCO4)c(=O)c32)cc2c1OCO2 (stereo unspecified)
 : i	1	21	140	99	-9	-3.6
- COc1ccc(-c2nnc(SCC(=O)Nc3sc4c(c3C#N)CCC4)n2CC2CCCO2)cc1 (stereo unspecified)
 : i	0.93	x	x	99	-2	0.5
- O=[N+]([O-])c1ccc(CN2CCOCCOCCN(Cc3ccc([N+](=O)[O-])cc3)CCOCC2)cc1
 : i	0.89	-100	111	103	-9	-0.1
- Nc1nc2nonc2nc1N
 : i	0.98	x	x	93	x	x
- O=c1/c(=C\c2ccc3c(c2)OCO3)sc2n1CCCN=2
 : i	0.95	x	x	101	-14	-0.4
- O=C(Nc1ccccc1N1CCCCC1)c1ccc(-c2ccc(Cl)cc2)o1
 : i	0.74	-23	60	103	1	0.5
- CCN(CC)C(=O)CSc1nc2ccccc2c(=O)n1CCC(=O)NCCc1ccc(OC)c(OC)c1
 : i	0.97	-64	119	96	-5	x
- Cc1cc(C)cc(OC(=O)C23CCC(C)(C(=O)O2)C3(C)C)c1 (stereo unspecified)
 : i	0.92	x	x	94	-2	x
- COc1ccc(/C=C2\SC(=O)N(CCC(=O)Nc3ccccc3)C2=O)cc1OC
 : i	0.61	4	96	92	-13	0.4
- CCN(Cc1ccccc1)c1c(C(=O)O)cnc2c1cnn2C
 : i	1.1	-35	99	102	1	x
- Nc1nnc(-c2ccccc2Cl)s1
 : i	0.95	x	x	100	9	-0.2
- COc1ccc(OCCC(=O)OCC(=O)NC(=O)NC(C)(C)C)cc1
 : i	0.9	16	64	104	-2	-0.4
- O=C(CSc1ncnc2scc(-c3ccc(Cl)cc3)c12)NCc1ccc2c(c1)OCO2
 : i	0.89	x	x	x	-4	-0.4
